Source: PubChem BioAssay
Lassa entry inh = inhibitors of Lassa virus binding or cell entry; Lassa virus pseudotype entry inhibition, cell reporter; control for the full effect not named in the record; Potency, µM (highest dose often 37.9 µM), for the others: at the top dose activity change, negative = inhibition, hits mostly inhibitors; hit rate 1.2% among 300,000; active means well fitted inhibition curve with a large enough effect; inconclusive means small, poorly fitted or top-dose-only effect, or effect the other way; inactive means flat fitted curve, though single readings scatter; tested in HEK293 cells; also: % is scaled to controls: 0 for no effect and ±100 for the full control effect; nearly all actives have a fitted effect of over 50% in size; luciferase read-out
Cruzain inh noDet = inhibitors of Trypanosoma cruzi cruzain without detergent. P25779. purified cruzain, Z-FR-AMC fluorescence, no detergent. hit rate 2.3% among 200,000. Potency, µM, inactives show max response, negative = inhibition, usual class: inhibitors;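 also: plate controls were enzyme without inhibitor for no effect and buffer without enzyme for full effect; nearly all actives have a fitted effect of over 40% in size; top concentration of the series not given in the record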
Target sequence (P25779 123-467 limits assumed): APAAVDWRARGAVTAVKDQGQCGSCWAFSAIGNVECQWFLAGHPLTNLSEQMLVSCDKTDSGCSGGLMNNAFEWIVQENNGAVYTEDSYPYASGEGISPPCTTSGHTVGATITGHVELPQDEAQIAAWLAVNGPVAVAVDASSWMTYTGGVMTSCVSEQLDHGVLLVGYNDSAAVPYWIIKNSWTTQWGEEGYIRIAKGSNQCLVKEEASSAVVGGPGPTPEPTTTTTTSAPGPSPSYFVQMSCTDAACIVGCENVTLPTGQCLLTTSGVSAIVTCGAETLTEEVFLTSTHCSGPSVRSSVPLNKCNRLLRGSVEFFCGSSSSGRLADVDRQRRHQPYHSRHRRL
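Purified cruzain at 1.5 nM, pre-incubated 15 min with compound at room temperature in 100 mM sodium acetate pH 5.5, 5 mM DTT, 0.00005% Triton X-100. Reaction started with 2 uM Z-FR-AMC; AMC fluorescence increase over 60 s gives rate.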
StopGo reporter = FMDV 2A StopGo reporter, luciferase signal. hit rate 1.2% among 410,000. Potency, µM (highest dose often 57.9 µM), without a hit: top-dose signal change, negative = less light. human cells with a luciferase reporter of 2A StopGo recoding; control for the full effect not named in the record; active = well fitted falling curve with a large enough effect; inconclusive = small, poorly fitted or top-dose-only effect; inactive = no such curve, though single readings can be large or run the other way; tested in HEK293T cells; also: % is scaled to controls: 0 for no effect and ±100 for the full control effect; nearly all actives have a fitted effect of over 45% in size; luciferase light after 4 h
NS1 inh = influenza NS1 inhibition; S. cerevisiae slowed by influenza A NS1, growth recovery by OD600; Potency, µM (doses to about 46.1 µM), inactives show top-dose activity, positive = more growth; hit rate 0.4% among 270,000; AID 2326; active means well fitted rising curve with a large enough effect; inconclusive means small, poorly fitted or top-dose-only effect; inactive means no such curve, though single readings can be large or run the other way; also: nearly all actives have a fitted effect of over 50% in size
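OD600 was taken as the measure of yeast growth restored by compound in an NS1-expressing S. cerevisiae strain. Cells had been washed out of glucose medium and diluted 1:100 into galactose -URA medium, pH 6.0.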
MARV entry inh = blocks Marburg virus binding to or entry into cells; Marburg virus pseudotyped entry inhibition, cell reporter; control for the full effect not named in the record; about a third of the inactives were read at about 46 µM; Potency, µM (titrated, usually from 37.8 µM), inactives show at the highest dose activity change, negative = inhibition, actives largely listed as inhibitors; hit rate 1.8% among 300,000; AID 540276; active = well fitted inhibition curve with a large enough effect; inconclusive = small, poorly fitted or top-dose-only effect, or effect the other way; inactive = flat fitted curve, though single readings scatter; tested in HEK293 cells; about a fifth of its hits are not listed in these tables; also: % is scaled to controls: 0 for no effect and ±100 for the full control effect; luciferase read-out
Cruzain Triton = cruzain (T. cruzi) inhibition with detergent; purified cruzain, Z-FR-AMC fluorescence, 0.01% Triton; Potency, µM, for the others: max response, negative = inhibition, hits mostly inhibitors; hit rate 0.43% among 200,000;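 also: plate controls were neutral wells for no effect and buffer without enzyme for full effect; nearly all actives have a fitted effect of over 40% in size; top concentration of the series not given in the record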
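Z-FR-AMC hydrolysis (2 uM substrate) by cruzain (1.5 nM) monitored kinetically at ex 360/em 450 nm after 15 min room-temperature compound exposure; 0.01% Triton X-100, pH 5.5, 5 mM DTT.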
RE007 growth inh = less growth of the S. pombe RE007 Vpr strain; S. pombe RE007 Vpr strain, BacTiter-Glo ATP luminescence, 24 h; control for the full effect not named in the record; Potency, µM (top dose mostly 92.2 µM), for the others: at the top dose activity change, negative = less growth; hit rate 0.21% among 360,000; active = well fitted falling curve with a large enough effect; inconclusive = small, poorly fitted or top-dose-only effect; inactive = no such curve, though single readings can be large or run the other way;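 also: % is scaled to controls: 0 for no effect and ±100 for the full control effect; nearly all actives have a fitted effect of over 50% in size; the assay follows cell death caused by Vpr and the record does not say whether a fall means rescue or toxicity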
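Fission yeast RE007 carrying one integrated HIV-1 vpr copy, seeded at OD 0.01 in PMG+AL medium with 23 nL pinned compound. Grown 24 h at 30 degrees; viability read by BacTiter-Glo luminescence after 5 min.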
SARS PLpro yeast = SARS-CoV PLP inhibition in yeast | S. cerevisiae expressing SARS-CoV PLpro, growth rescue; control for the full effect not named in the record | Potency, µM (doses to about 32.9 µM), inactives show top-dose activity, positive = growth rescue | hit rate 0.19% among 330,000 | AID 485353; active means well fitted rising curve with a large enough effect; inconclusive means small, poorly fitted or top-dose-only effect; inactive means no such curve, though single readings can be large or run the other way; also: 0% is about no effect; nearly all actives have a fitted effect of over 55% in size; growth read by luminescence after 48 h
Active calls of the source: *; ? = inconclusive; . = no result given; [ ] = dose if it differs, or a comment. Unless noted, calls follow the shape of the dose curve; as a rule, active = well fitted curve in the direction sought with a large enough effect; inconclusive = small, poorly fitted or top-dose-only effect, or another doubt; inactive = no such curve, though single readings can be large; an effect the other way counts as inactive or inconclusive. Potency is read from the fitted curve at half-maximal effect.

A first look, 16 compounds:
SMILES	Lassa entry inh	Cruzain inh noDet	StopGo reporter	NS1 inh	MARV entry inh	Cruzain Triton	RE007 growth inh	SARS PLpro yeast
Cc1ccc2[nH]c(=O)c(CNS(=O)(=O)c3ccccc3)c(-c3ccccc3)c2c1	-11%	-3%	?	-10%	?	-7.9%	3%	10%
COc1ccccc1Nc1ccc(C(=O)O)cc1[N+](=O)[O-]	6%[46.1 µM]	.	10%	.	7%[46.1 µM]	.	6%	1%
CCOC(=O)c1cc(-c2nnc(-c3cc(OC)c(OC)c(OC)c3)o2)c(C)nc1C	20%	.	0%	16%	6%	.	15%	.
CCCN(CCC)C(=O)CSc1nc2ccccc2c(=O)n1CC1COc2ccccc2O1 (stereo not given)	?	-3%	6%	-2%	?	-1.8%	11%	1%
O=C(NCCCc1nc2ccccc2[nH]1)c1ccco1	.	.	4%	6%	.	.	-5%	4%
Cc1cc(C)c(NC(=O)CSc2nc(=O)n(CCN3CCOCC3)c3c2CCCC3)c(C)c1	?	.	5%	.	?	.	-14%	-1%
COc1ccc(-c2ccc(CNc3ccc4[nH]c(=O)[nH]c4c3)o2)cc1Cl	6%[46.1 µM]	?	-14%	.	?	-7.9%	.	.
COc1ccc(OC)c(C(=O)c2ccc(C(=O)c3cc(OC)ccc3OC)cc2)c1	?	-5%	.	4%	-8%	3.5%	-10%	-6%
COc1ccc(OC)c(C2=NS(=O)(=O)N(C)C(C(=O)NCc3cccs3)=C2)c1	.	.	-3%	8%	.	.	-1%	19%
CCCOc1ccc(N2C(=O)CC(N(CCc3ccc(OC)cc3)C(=O)c3ccccc3)C2=O)cc1 (stereo not given)	?	.	-2%	-1%	-18%	.	2%	-1%
O=c1[nH]c(=O)n(-c2ccc(F)cc2)c(O)c1C=Nc1ccccc1N1CCCC1	1%	?	1%	7%	4%	3.2%	-9%	-3%
O=C(c1cccc(Cl)c1)N(Cc1cccc(F)c1)C1CCS(=O)(=O)C1 (stereo not given)	-1%[46.1 µM]	-10%	-28%	.	1%[46.1 µM]	-3.0%	.	.
CCOC(=O)c1cnc2cc(-c3ccc(C(C)(C)C)cc3)nn2c1N	9%	?	-18%	8%	28%	4.0%	-1%	4%
Cc1ccc(OCCSc2nc3ccccc3n2CC(=O)N2CCOCC2)c(C)c1	6%[46.1 µM]	6%	-13%	.	5%[46.1 µM]	1.5%	.	.
CCOc1ccccc1NS(=O)(=O)c1cn(C)nc1C	5%	.	22%	2%	8%[46.1 µM]	.	2%	-1%
Clc1ccccc1Nc1c2c(nc3ncnn13)CCC2	1%	-5%	?	-8%	-19%	1.4%	-7%	5%

This part in full (from the top)
SMILES	Lassa entry inh	Cruzain inh noDet	StopGo reporter	NS1 inh	MARV entry inh	Cruzain Triton	RE007 growth inh	SARS PLpro yeast
Cc1ccc2[nH]c(=O)c(CNS(=O)(=O)c3ccccc3)c(-c3ccccc3)c2c1	-11%	-3%	?	-10%	?	-7.9%	3%	10%
COc1ccccc1Nc1ccc(C(=O)O)cc1[N+](=O)[O-]	6%[46.1 µM]	.	10%	.	7%[46.1 µM]	.	6%	1%
CCOC(=O)c1cc(-c2nnc(-c3cc(OC)c(OC)c(OC)c3)o2)c(C)nc1C	20%	.	0%	16%	6%	.	15%	.
CCCN(CCC)C(=O)CSc1nc2ccccc2c(=O)n1CC1COc2ccccc2O1 (stereo not given)	?	-3%	6%	-2%	?	-1.8%	11%	1%
O=C(NCCCc1nc2ccccc2[nH]1)c1ccco1	.	.	4%	6%	.	.	-5%	4%
Cc1cc(C)c(NC(=O)CSc2nc(=O)n(CCN3CCOCC3)c3c2CCCC3)c(C)c1	?	.	5%	.	?	.	-14%	-1%
COc1ccc(-c2ccc(CNc3ccc4[nH]c(=O)[nH]c4c3)o2)cc1Cl	6%[46.1 µM]	?	-14%	.	?	-7.9%	.	.
COc1ccc(OC)c(C(=O)c2ccc(C(=O)c3cc(OC)ccc3OC)cc2)c1	?	-5%	.	4%	-8%	3.5%	-10%	-6%
COc1ccc(OC)c(C2=NS(=O)(=O)N(C)C(C(=O)NCc3cccs3)=C2)c1	.	.	-3%	8%	.	.	-1%	19%
CCCOc1ccc(N2C(=O)CC(N(CCc3ccc(OC)cc3)C(=O)c3ccccc3)C2=O)cc1 (stereo not given)	?	.	-2%	-1%	-18%	.	2%	-1%
O=c1[nH]c(=O)n(-c2ccc(F)cc2)c(O)c1C=Nc1ccccc1N1CCCC1	1%	?	1%	7%	4%	3.2%	-9%	-3%
O=C(c1cccc(Cl)c1)N(Cc1cccc(F)c1)C1CCS(=O)(=O)C1 (stereo not given)	-1%[46.1 µM]	-10%	-28%	.	1%[46.1 µM]	-3.0%	.	.
CCOC(=O)c1cnc2cc(-c3ccc(C(C)(C)C)cc3)nn2c1N	9%	?	-18%	8%	28%	4.0%	-1%	4%
Cc1ccc(OCCSc2nc3ccccc3n2CC(=O)N2CCOCC2)c(C)c1	6%[46.1 µM]	6%	-13%	.	5%[46.1 µM]	1.5%	.	.
CCOc1ccccc1NS(=O)(=O)c1cn(C)nc1C	5%	.	22%	2%	8%[46.1 µM]	.	2%	-1%
Clc1ccccc1Nc1c2c(nc3ncnn13)CCC2	1%	-5%	?	-8%	-19%	1.4%	-7%	5%
CCOC(=O)Cc1csc(NC(=O)CSc2nccn2C)n1	.	.	-6%	-8%	.	.	2%	1%
CCOC(=O)N1CCN(c2nc(-c3cccc(OC)c3)cc(C(F)(F)F)n2)CC1	?	?	0%	7%	?	-14%	-7%	2%
O=C(CC1C(=O)NCCN1Cc1ccc(F)cc1)NCCCn1cccn1 (stereo not given)	.	.	3%	-3%	.	.	0%	0%
COc1ccc2nc(SC(C)C(=O)NCC(=O)Nc3ccc(F)c(F)c3F)[nH]c2c1 (stereo not given)	1%[46.1 µM]	.	10%	.	27%	.	-13%	-2%
CCOc1ccc2[nH]c(=O)c(CN(Cc3cccs3)C(CC)c3nnnn3C(C)(C)CC)cc2c1 (stereo not given)	?	-1%	?	4%	?	-9.2%	-3%	2%
CCOc1ccc(NC(=O)CCNS(=O)(=O)c2ccc3c(c2)CCCC(=O)N3)cc1	-15%[46.1 µM]	-4%	-2%	.	.	-1.0%	.	.
O=C(CCc1nnc2ccc(NCc3ccco3)nn12)N1CCN(c2ccc(F)cc2)CC1	-19%[46.1 µM]	.	-13%	1%	14%[46.1 µM]	.	-6%	-4%
CCCCOc1cccc(C(=O)Nc2sc3c(c2C(=O)OCC)CCCC3)c1	-6%[46.1 µM]	1%	-8%	.	.	-0.6%	.	.
O=C1CCN(C(=O)c2ccccc2)C2CCCCC12 (stereo not given)	-9%	-1%	39%[activator]	-1%	13%	2.8%	15%	0%
COC(=O)c1ccc(NC(=S)N2CCN(CCO)CC2)cc1	.	.	-8%	-1%	.	.	-1%	3%
COc1cccc2c1N=C1CCCC3CN(C(C)=O)CCC123 (stereo not given)	4%[46.1 µM]	.	-5%	.	2%[46.1 µM]	.	-2%	.
Cc1nc(NC(=S)NC(=O)c2ccccc2)sc1C(=O)N(C)C	?	-7%	47%[activator]	-16%	23%	-5.5%	-7%	7%
Cc1ccc(Cn2ncc3c(NCCN(C)C)ncnc32)cc1	.	.	-7%	-2%	.	.	-6%	0%
Cc1ccc(OCC(=O)NCC2CCCO2)c(C)c1 (stereo not given)	25%	.	34%[activator]	-1%	?	.	?	1%
Nc1cccc(-c2nc3ccccc3s2)c1	-14%	-8%	0%	-12%	?	-3.6%	?	2%
CCC1CCCCN1C(=O)Cn1c(=O)n(CCCCCC(=O)NCc2ccccc2Cl)c(=O)c2sccc21 (stereo not given)	-19%[46.1 µM]	-7%	-4%	.	-11%[46.1 µM]	-1.4%	.	.
Cc1ccc([C@H]2Nc3ccc(S(=O)(=O)Nc4cccc(Cl)c4C)cc3[C@H]3C=CC[C@H]32)cc1	-7%[46.1 µM]	-27%	-1%	.	?	-7.5%	.	.
Cc1ccc(CCNC(=O)C2CCN(S(=O)(=O)c3ccc4c(c3)CCC(=O)N4)CC2)cc1	0%	1%	-15%	3%	0%	1.1%	0%	-14%
COc1ccc(C2N3CC4(C)CN2CC(c2ccccc2)(C3)C4=O)cc1 (stereo not given)	-23%[46.1 µM]	6%	-29%	.	1%[46.1 µM]	-0.7%	.	.

Pulled by structure from above, 2 records:
SMILES	Lassa entry inh	Cruzain inh noDet	StopGo reporter	NS1 inh	MARV entry inh	Cruzain Triton	RE007 growth inh	SARS PLpro yeast
CCC1CCCCN1C(=O)Cn1c(=O)n(CCCCCC(=O)NCc2ccccc2Cl)c(=O)c2sccc21 (stereo not given)	-19%[46.1 µM]	-7%	-4%	.	-11%[46.1 µM]	-1.4%	.	.
Nc1cccc(-c2nc3ccccc3s2)c1	-14%	-8%	0%	-12%	?	-3.6%	?	2%

Rows were taken by chance. Share with any hit: about 4.7%.
